Compound activity from PubChem.
BJeLR viab HTS: BJeLR cell viability reduction; BJeLR fibroblasts viability, CellTiterGlo ATP luminescence, 48 h; HRASV12, hTERT and SV40 LT/ST transformed; 30,000 tested, 0.64% active; viability loss activity score, % (test concentration not listed); in the data active = viability loss activity score above about 50%; about a fifth of its hits are not listed in these tables;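 note: higher score means fewer live cells and less ATP luminescence; stock transfer was 50 or 100 nL into about 30 µL; 0% = vehicle wells and 100% = a reference killing control; one replicate is shown; the record names a cut of 85%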
A1 inh: inhibitors of A1. MEF A1-2A-BIM cells, caspase-Glo luminescence, 3 h; percent of clofoctol signal, DMSO as zero. AID 2241. 21,000 tested, 0.51% active. caspase activation, % (concentration not given with the values);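 active = most replicate scores above 10, or exactly half above 10 with mean activity above 10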;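 note: effector caspase 3 and 7 activity cleaving a DEVD luciferin substrate; 50 nL library stock added to about 30 µL; numbers are from one replicate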
Active calls of the source: *; / = no result given.

SMILES | BJeLR viab HTS | A1 inh
COc1ccc(C2OC(=O)c3ccccc3S2)cc1 (stereo not given) | 1.9 | 0.0
Cc1ccc(N2C(=O)C(CC(=O)Nc3ccccc3)N(Cc3ccc4c(c3)OCO4)C2=O)cc1 (stereo not given) | -4.9 | /
C[C@@H]1CN([C@H](C)CO)C(=O)c2cc(NC(=O)Cc3ccccc3)ccc2O[C@H]1CN(C)CC1CC1 | -2.4 | 0.0
Cc1cc(C)nc(S/C=C/C(=O)c2ccc(Cl)cc2)n1 | 2.4 | 0.1
COC(CNC(=O)C1CCN(Cc2nc(-c3ccc(Cl)cc3)oc2C)CC1)OC | -3.9 | /
NC(=O)c1ccccc1OCC(=O)N1CCOCC1 | 18 | 0.7
COc1ccc(CN(C)C[C@H]2Oc3c(NC(=O)Nc4ccccc4)cccc3C(=O)N([C@@H](C)CO)C[C@H]2C)cc1 | -3.9 | /
C=CCNC(=O)CSc1ncc2c(n1)-c1c(csc1SC)CC2 | 3.2 | 0.1
Cc1ccc(S(=O)(=O)N(C)C[C@H]2Oc3c(NS(=O)(=O)c4ccc(F)cc4)cccc3C(=O)N([C@@H](C)CO)C[C@H]2C)cc1 | -4.6 | /
Cc1c(C)c(C)c(S(=O)(=O)N2CC(C)CC(C)C2)c(C)c1C (stereo not given) | -3.1 | 0.8
CC(CCc1ccccc1)NCc1c(C(=O)O)n(C)c2ccccc12 (stereo not given) | 5.5 | /
CC(C)(C)N(CCO)C(=O)CN1C(=O)/C(=C/c2cccc(Br)c2)SC1=S | -6.3 | 0.2
COC(=O)c1cc2occc2n1Cc1ccccc1 | 0.4 | 0.7
O=C(CSCc1ccccc1)Nc1cccc(-c2cn3cccnc3n2)c1 | -1.0 | /
COc1ccc(CN(C)C[C@H]2Oc3ccc(NC(=O)NC(C)C)cc3C(=O)N([C@H](C)CO)C[C@@H]2C)cc1 | -1.9 | 0.0
CCc1nc2c(cnn2-c2ccccc2)c(=O)n1CCc1ccccc1 | 35 | 0.1
COc1ccc(CCN2CC(C(=O)NCc3ccc(F)cc3)CC2=O)cc1OC (stereo not given) | -0.2 | -0.1
C[C@@H]1CN([C@H](C)CO)C(=O)c2cc(NS(=O)(=O)c3ccc(F)cc3)ccc2O[C@H]1CN(C)Cc1ccc2c(c1)OCO2 | -0.9 | 0.0
Cc1ccc(-c2nn(CCC(=O)O)cc2/C=C2\SC(N)=NC2=O)cc1 | 5.9 | /
CC(=O)Nc1ccc(NC(=O)CC(c2ccccc2)c2ccccc2)cc1 | 4.0 | 0.5
COc1cc(/C=C2\Oc3cc(O)cc(O)c3C2=O)ccc1O | 0.0 | -3.4
C[C@@H]1CN([C@H](C)CO)C(=O)c2cccc(NC(=O)c3cnccn3)c2O[C@@H]1CN(C)Cc1ccc(Oc2ccccc2)cc1 | 9.9 | /
CC(C)NC(=O)N(C)C[C@H]1Oc2c(NC(=O)NC3CCCCC3)cccc2C(=O)N([C@@H](C)CO)C[C@H]1C | 2.2 | /
C[C@@H]1CN([C@H](C)CO)C(=O)c2cc(NS(=O)(=O)c3ccc(Cl)cc3)ccc2O[C@H]1CN(C)C(=O)NC1CCCCC1 | -0.2 | 0.6
CS/C(Nc1cccc(Cl)c1Cl)=C(/C#N)C(=O)c1cccs1 | -3.0 | -4.7
Cc1cccc(C(=O)Nc2ccc(NC(=O)c3cccs3)cc2)c1 | -3.6 | -2.9
CNC[C@H]1Oc2ccc(NC(=O)Nc3cccc4ccccc34)cc2C(=O)N([C@H](C)CO)C[C@H]1C | -1.9 | 0.8
C[C@@H]1CN([C@H](C)CO)C(=O)c2cc(NC(=O)Nc3ccc(F)cc3)ccc2O[C@H]1CN(C)C(=O)NC1CCCCC1 | 1.6 | -0.8
CC(C)c1ccc(NC(=O)c2cccnc2Cl)cc1 | -7.4 | -1.8
CC(C)NC(=O)Nc1cccc2c1O[C@H](CN(C)C(=O)Nc1ccc(F)cc1)[C@H](C)CN([C@@H](C)CO)C2=O | -0.5 | /

Following part:
SMILES | BJeLR viab HTS | A1 inh
O=C(Cn1c(=O)oc2cc(S(=O)(=O)NCc3ccccc3)ccc21)N1CCOCC1 | 7.8 | 0.9
O=c1[nH]c2ccc(Cl)cc2c(-c2ccccc2)c1-[n+]1ccccc1 | 3.8 | 0.7
Cc1noc(C)c1NC(=O)Nc1cccc2c1O[C@H](CN(C)C(=O)Nc1cccc3ccccc13)[C@H](C)CN([C@@H](C)CO)C2=O | 1.7 | /
COc1ccc(S(=O)(=O)N(C)C[C@H]2Oc3ccc(NC(=O)Nc4ccccc4)cc3C(=O)N([C@@H](C)CO)C[C@H]2C)cc1 | -0.8 | -0.5
CNC[C@H]1Oc2ccc(NS(=O)(=O)c3ccc(F)cc3)cc2C(=O)N([C@@H](C)CO)C[C@H]1C | -5.8 | 0.4
COc1cc(C2c3c(cc(OC)c(O)c3OC)CC(CO[C@@H]3O[C@H](CO)[C@@H](O)[C@H](O)[C@H]3O)C2CO)cc(OC)c1O (stereo not given in full) | -1.6 | -0.4
CN1CCC2(CC1)C(C#N)=C(N)Oc1n[nH]c(C(=O)OC(C)(C)C)c12 | -4.9 | 0.3
C[C@H]1CN([C@@H](C)CO)C(=O)c2cccc(NC(=O)c3nc4ccccc4s3)c2O[C@@H]1CN(C)Cc1ccc(C(=O)O)cc1 | -1.4 | /
CCOC(=O)CN(c1ccccc1)C1SC(=O)N(Cc2cccc(C(=O)O)c2)C1=O (stereo not given) | -6.0 | -0.2
C[C@@H]1CN([C@@H](C)CO)C(=O)c2cccc(NS(=O)(=O)c3ccccc3)c2O[C@H]1CN(C)CC1CC1 | 13 | /
CC1=C(C(=O)Nc2ccccc2)C(c2ccc(C(C)C)cc2)n2c(nc3ccccc32)N1 (stereo not given) | -0.3 | 1.1
Cn1c(C2COc3ccccc3O2)n[nH]c1=S (stereo not given) | 1.1 | 0.4
CCOC(=O)C1=CN(c2ccc(C)c(C)c2)C=C(C(=O)OCC)C1c1ccccc1F | -2.5 | 0.4
S=C(c1cn(Cc2ccccc2)c2ccccc12)N1CCCCC1 | 0.8 | /
O=C1N/C(=C/c2ccc(C(F)(F)F)cc2)C(=O)N1c1ccccc1 | -3.2 | 0.9
Cc1cccc(N2CCN(C(=O)C3CCCN(S(=O)(=O)c4cccc5nonc45)C3)CC2)c1C (stereo not given) | 5.0 | /
COc1ccc(NC(=O)N(C)C[C@H]2Oc3ccc(NC(=O)Cn4cnnn4)cc3C(=O)N([C@@H](C)CO)C[C@@H]2C)cc1 | 0.0 | 0.5
C[C@@H]1CN([C@@H](C)CO)C(=O)c2cccc(NC(=O)Nc3ccc(F)cc3)c2O[C@@H]1CN(C)Cc1ccc(-c2ccccc2)cc1 | -4.9 | /
COC(=O)C1=C(C)NC(C)=C(C(=O)OC)C1 | -5.6 | 1.3
Cc1cc(-c2c(C(=O)Sc3ccccc3)c(C)nn2-c2ccccc2)no1 | 0.5 | -0.4
Nc1nc(Cc2ccc(F)cc2F)no1 | 5.5 | -0.9
Cc1ccc(OCC(=O)Oc2ccc(C)cc2)cc1 | 4.0 | -0.3
CNC[C@@H]1Oc2c(NS(=O)(=O)c3ccccc3)cccc2C(=O)N([C@H](C)CO)C[C@H]1C | -0.2 | /
CC(C)c1ccc2[nH]c3c(c2c1)CCCC3=O | 0.8 | 0.8
C[C@@H]1CN([C@H](C)CO)C(=O)c2cc(NC(=O)Nc3cccc4ccccc34)ccc2O[C@H]1CN(C)C(=O)Nc1ccc(F)cc1 | 0.4 | 0.3
c1ccc(Cc2nnc3sc(Nc4ccccc4)nn23)cc1 | 6.9 | /
Cn1c(C(=O)NCCN2CCCCCC2)cc2sccc21 | 6.3 | 0.0
COC(=O)c1sc(SC)c(C#N)c1-c1cccc(Cl)c1 | -3.7 | -0.1
COc1ccc(S(=O)(=O)Nc2cccc3c2O[C@H](CN(C)S(=O)(=O)c2ccccc2)[C@@H](C)CN([C@@H](C)CO)C3=O)cc1 | -4.9 | /
CC(C)(C)c1cc(C(=O)Oc2cncc(Cl)c2)cc(C(=O)Oc2cncc(Cl)c2)c1 | 2.0 | 3.1

Carrying on.
Molecule | BJeLR viab HTS | A1 inh
CC(C)OC(=O)C(C)Oc1ccc2c(=O)c(-c3ccccc3)coc2c1 (stereo not given) | 4.5 | 0.0
CC(C)NC(=O)NCc1c(F)cccc1Cl | -2.1 | 0.0
C[C@H](CO)N1C[C@H](C)[C@H](CN(C)C(=O)Nc2ccc(F)cc2)Oc2c(NC(=O)c3cnccn3)cccc2C1=O | 0.5 | /
CCc1ccc(OCc2ccc(C(=O)OC)o2)cc1 | -1.0 | /
CC(C)n1cc(-c2noc(-c3ccccc3Cl)n2)c(=O)n(Cc2ccccc2)c1=O | 0.9 | -0.1
COc1ccc(S(=O)(=O)N(C)C[C@@H]2Oc3ccc(NC(=O)CCC(F)(F)F)cc3C(=O)N([C@H](C)CO)C[C@H]2C)cc1 | -0.7 | 0.5
O=C(Nc1cccc(Cl)c1)Nc1nc(-c2ccc(OC(F)(F)F)cc2)no1 | 9.1 | -0.3
COc1cccc(C=C2C(=O)c3ccccc3C2=O)c1OC(C)C | -4.1 | 0.7
O=C(NCc1ccccc1)c1ccccc1 | 1.7 | -0.9
CCC1(C)C(=O)C=C2C(=COC(C)=C2C)C1O (stereo not given) | 18 | 0.2
C[C@@H]1CN([C@@H](C)CO)C(=O)c2cc(NS(C)(=O)=O)ccc2O[C@H]1CN(C)Cc1ccc(C(=O)Nc2ccccc2N)cc1 | -2.6 | /
Fc1cccc2sc(NCc3ccccc3)nc12 | -0.4 | /
CCOc1ccc(OCCSc2nc(C)cc(=O)[nH]2)cc1 | 7.7 | -5.1
O=C(CCSc1ccccc1)NCc1ccco1 | 4.2 | -0.8
CC(C)NC(=O)Nc1ccc2c(c1)C(=O)N([C@H](C)CO)C[C@@H](C)[C@@H](CN(C)C(=O)NC1CCCCC1)O2 | 7.5 | -0.4
COc1ccc(-c2cc(C(=O)NCc3cccc(OC)c3)c3ccccc3n2)cc1 | -2.3 | -0.4
C[C@@H]1CN([C@@H](C)CO)C(=O)c2cccc(NC(=O)Nc3ccc(C(F)(F)F)cc3)c2O[C@H]1CN(C)S(=O)(=O)c1cn(C)cn1 | -2.3 | /
COc1cccc2sc(=NC(=O)c3ccccc3)n(C)c12 | 8.8 | /
C[C@H]1CN([C@@H](C)CO)C(=O)c2cccc(NC(=O)Nc3ccc(C(F)(F)F)cc3)c2O[C@H]1CN(C)C(=O)Nc1ccccc1 | 7.0 | /
C=CCN(C(=O)c1cc2c(-c3ccc(OC)c(OC)c3)nn(C)c2s1)c1ccccc1 | -8.2 | /
S=c1[nH]nc(CSc2nc(-c3ccccc3)cn2-c2ccccc2)n1-c1ccccc1 | 2.8 | 0.4
COc1ccc(CN(C)C[C@@H]2Oc3c(NS(=O)(=O)c4ccc(F)cc4)cccc3C(=O)N([C@H](C)CO)C[C@@H]2C)cc1 | -12 | /
CCOC(=O)c1sc(/S(C)=N/S(=O)(=O)c2cccc(Cl)c2)c2c1CCC=C2 (stereo not given) | -0.5 | -0.5
Cc1ccc(N2C(=O)CC(Cc3ccccc3)C2=O)cc1 (stereo not given) | -3.3 | 0.8
CCOC(=O)c1c(COC(C)=O)n(C)c2cc(Br)c(OC)cc12 | -0.7 | -0.8

(cont.)
Molecule | BJeLR viab HTS | A1 inh
COc1ccc(NC(=O)CCCn2c(=S)[nH]c3ccccc3c2=O)cc1 | -2.9 | 0.0
Cc1cc(C(=O)Nc2cccc3c2O[C@H](CN(C)S(=O)(=O)c2ccc(F)cc2)[C@@H](C)CN([C@H](C)CO)C3=O)n(C)n1 | -2.2 | /
CNC[C@H]1Oc2c(NC(=O)Nc3c(C)noc3C)cccc2C(=O)N([C@H](C)CO)C[C@H]1C | -1.1 | /
C[C@@H]1CN([C@H](C)CO)C(=O)c2cc(NC(=O)Cn3cnnn3)ccc2O[C@H]1CN(C)Cc1ccc(C(=O)Nc2ccccc2N)cc1 | -0.7 | /
C[C@H](CO)N1C[C@H](C)[C@H](CN(C)Cc2ccc(Cl)c(Cl)c2)Oc2c(NC(=O)Nc3ccccc3)cccc2C1=O | 5.4 | /
COC(=O)c1cc2ccccc2[nH]1 | -1.5 | -1.2
C[C@H](CO)N1C[C@H](C)[C@H](CN(C)S(=O)(=O)c2ccc(Cl)cc2)Oc2c(NC(=O)C3CC3)cccc2C1=O | -0.2 | /
CNC[C@@H]1Oc2ccc(NC(=O)NC3CCCCC3)cc2C(=O)N([C@@H](C)CO)C[C@H]1C | 2.0 | 0.1
COc1ccc(NC(=O)Nc2ccc3c(c2)C(=O)N([C@H](C)CO)C[C@H](C)[C@H](CN(C)Cc2ccccc2)O3)cc1 | 2.9 | 1.1
Cn1c(N2C(=O)c3cccc4cccc(c34)C2=O)nc2ccccc21 | -0.1 | 0.4
CCOC(=O)c1c(NC(C)=O)nc(SC)n1Cc1ccco1 | -0.6 | 1.4

Compound profiles, as listed above:
COc1ccc(-c2cc(C(=O)NCc3cccc(OC)c3)c3ccccc3n2)cc1 in the list: BJeLR viab HTS: -2.3; A1 inh: -0.4
C[C@@H]1CN([C@H](C)CO)C(=O)c2cc(NC(=O)Nc3cccc4ccccc34)ccc2O[C@H]1CN(C)C(=O)Nc1ccc(F)cc1 in the list: BJeLR viab HTS: 0.4; A1 inh: 0.3

Random excerpt: 4 compounds from above, in no set order.
Molecule | BJeLR viab HTS | A1 inh
C[C@H](CO)N1C[C@H](C)[C@H](CN(C)Cc2ccc(Cl)c(Cl)c2)Oc2c(NC(=O)Nc3ccccc3)cccc2C1=O | 5.4 | /
CNC[C@H]1Oc2c(NC(=O)Nc3c(C)noc3C)cccc2C(=O)N([C@H](C)CO)C[C@H]1C | -1.1 | /
CCOC(=O)c1c(NC(C)=O)nc(SC)n1Cc1ccco1 | -0.6 | 1.4
COc1ccc(NC(=O)CCCn2c(=S)[nH]c3ccccc3c2=O)cc1 | -2.9 | 0.0

Not all compounds are listed (hit frequency here may not be typical).
